# Screens as filed in PubChem.
# Arbovirus inh – antivirals against arbovirus infection; arbovirus infection cell-based antiviral screen; inhibition, % at 10 µM; 200,000 compounds, 0.37% hits; AID 1251;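 active = inhibition from about 30%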;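 also: bluetongue infection of BSR cells; cell survival read as ATP light after 72 h; 0% = infected wells without compound and 100% = uninfected wells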
# Mtb growth – M. tuberculosis H37Rv growth inhibitors, H37Rv strain (AID 1626); M. tuberculosis H37Rv growth inhibition; higher % means a stronger effect; inhibition, % at 10 µM; hits with a dose series show IC50 in µM; 220,000 compounds, 0.95% hits;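 active = confirmed in a dose series; inconclusive = inhibition above 80% but not taken into the dose series; inactive = below 80% or under 30% at every dose of the series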;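 also: bacteria incubated seven days before Alamar blue readout; 0% = bacteria only wells and 100% = bacteria with antibiotic wells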
# YopH inh – inhibitors of Yersinia enterocolitica YopH tyrosine phosphatase | fluorescence Ex485/Em525 | 140,000 compounds, 0.16% hits | inhibition, %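 (about 10 µM by stock and volumes)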;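 active = inhibition of 50% or more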;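 also: controls were vehicle for no effect and minimum signal wells for full effect; inactives centre near -20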
# RecA intein inh – inhibitors of M. tuberculosis RecA intein splicing | P9WHJ3 | cell-free RecA intein splicing, fluorescence | inhibition, %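 (about 9 µM by stock and volumes)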 | 290,000 compounds, 0.75% hits; in the data active = inhibition above about 30%; inconclusive = no clear call, values can overlap the other calls;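 also: 0% = vehicle wells and 100% = reference inhibitor control wells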
# Target sequence (P9WHJ3 whole entry, looked up): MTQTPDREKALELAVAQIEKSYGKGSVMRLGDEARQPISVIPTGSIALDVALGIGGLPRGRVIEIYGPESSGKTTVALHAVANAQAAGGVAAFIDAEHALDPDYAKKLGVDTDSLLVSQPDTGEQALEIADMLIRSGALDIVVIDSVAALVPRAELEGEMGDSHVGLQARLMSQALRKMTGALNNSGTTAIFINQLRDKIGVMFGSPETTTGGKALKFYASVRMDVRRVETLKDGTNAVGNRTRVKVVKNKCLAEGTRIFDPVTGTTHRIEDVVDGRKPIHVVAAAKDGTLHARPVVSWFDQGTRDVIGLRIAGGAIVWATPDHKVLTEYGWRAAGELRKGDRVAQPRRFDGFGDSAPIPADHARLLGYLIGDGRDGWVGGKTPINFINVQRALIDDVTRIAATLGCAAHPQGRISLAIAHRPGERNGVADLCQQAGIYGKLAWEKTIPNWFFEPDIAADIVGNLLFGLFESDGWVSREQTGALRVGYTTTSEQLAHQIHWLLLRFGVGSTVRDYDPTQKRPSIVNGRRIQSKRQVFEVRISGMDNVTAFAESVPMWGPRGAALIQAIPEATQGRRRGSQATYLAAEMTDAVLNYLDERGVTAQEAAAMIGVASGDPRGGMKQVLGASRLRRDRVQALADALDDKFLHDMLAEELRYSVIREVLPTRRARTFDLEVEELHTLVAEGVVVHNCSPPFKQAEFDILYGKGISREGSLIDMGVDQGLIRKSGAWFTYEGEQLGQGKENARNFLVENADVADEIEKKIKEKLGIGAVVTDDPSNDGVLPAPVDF
# Mtb bLac sens – beta-lactam sensitization of Mtb H37Rv; 330,000 compounds, 0.27% hits; inhibition, % at 25 µM; M. tuberculosis H37Rv growth with meropenem, percent inhibition; hits of this screen are not shown here;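 active = about 74% or more and at least 40 points above the plate without the antibiotic, then above 30% in a dose series; inconclusive = first-round hits that could not be retested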;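 also: growth measured after seven days incubation then overnight dye step; 0% = bacteria only wells and 100% = bacteria with antibiotic; twin plates without the antibiotic show which effects depend on it; some results filed as inactive read as strong as hits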
# Arbovirus inh repeat – second read-out of Arbovirus inh, no call of its own (marks repeat the call); inhibition, %; measured here: 10K subset replicate screen; many hits read low in the repeat;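 first of two repeat runs on a subset; 0% = infected and 100% = uninfected wells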
# * hit, by the source's call; u = inconclusive; x = no result given. A portion of the library; count on the stated rates, not on these rows.
SMILES,Arbovirus inh,Mtb growth,YopH inh,RecA intein inh,Mtb bLac sens,others
CC(C)CC(=O)NC(=S)Nc1ccc(N2CCOCC2)cc1,5.5,-3.9%,0.3,-0.7,18.9,
C/C(NCCN1CCOCC1)=C(\C#N)C(N)=O,2.3,-3.0%,8.2,0.5,-20.6,Arbovirus inh repeat=9.2
CSc1ccccc1NC(=O)CN(C1CCCCC1)S(C)(=O)=O,3.0,-8.7%,5.0,0.4,-1.0,
Cc1nc2scc(C)n2c(=O)c1S(=O)(=O)N1CCN(c2ccccc2F)CC1,x,x,x,-1.7,1.5,
COc1cc2nc(C3CC3)n(NC(=O)c3ccc(Cl)cc3)c(=O)c2cc1OC,-5.2,-4.3%,-20.1,-2.3,-0.1,
O=C(NCc1ccc(Cl)cc1)c1csc(-c2cccnc2)n1,x,-3.6%,x,1.3,-4.6,
COC(=O)C1=NNC2C(=O)N(C3CCCCC3)C(=O)C12 (centres undefined),-0.8,0.3%,x,1.1,-7.4,
O=C1c2cccnc2C(=O)N1Cc1ccccc1,8.4,2.3%,-40.9,1.5,-1.0,Arbovirus inh repeat=-1.9
O=C(Nc1ccc(-n2ccnc2P(=O)(O)c2ccccc2)cc1)c1ccccc1Cl,4.5,-7.2%,-7.9,-1.5,-5.8,
COC(=O)C(O)(CC(=O)Nc1ccc(Cl)cc1Cl)C(F)(F)F (centres undefined),7.2,-13.6%,-28.1,-0.3,-4.7,
Cc1oc(S(=O)(=O)N(C)C)cc1C(=O)Nc1ccc(Cl)cc1,x,4.6%,x,-0.5,4.0,
O=C1C2CC=CCC2C(=O)N1Cc1nnc(-c2ccc(Cl)cc2)o1 (centres undefined),9.0,-3.0%,x,-1.8,7.0,
CCCC(=O)N(Cc1cc(=O)[nH]c2ccccc12)c1ccc(C)cc1C,x,x,x,-2.0,-5.2,
COc1ccccc1NS(=O)(=O)c1cccs1,6.2,2.6%,-10.6,-0.9,0.4,
CCCCNC(=O)NC12CC3CC(CC(C3)C1)C2,3.4,-0.2%,x,0.9,7.6,
CN(C)CCNC(=O)c1csc(Nc2cccc3ccccc23)n1,x,x,x,1.1,13.0,
CCCCOc1ccc(-c2nnc(-c3cc[n+](C)cc3)o2)cc1,3.8,-0.7%,x,-0.8,-6.7,
Cc1nn(C2CCCCC2)c(N)c1-c1ccccc1,7.3,-0.9%,-27.8,-0.9,-5.4,
CSc1ccc(-c2nc(CN3CCCCC3c3cccnc3)c(C)o2)cc1 (centres undefined),7.9,2.5%,x,5.3,-0.8,
CC(C)c1ccc(-c2cc(C(=O)N3CCOCC3)c3cc(Br)ccc3n2)cc1,x,x,x,0.5,72.2,
O=C(CC1C(=O)NCCN1Cc1ccc(F)cc1)NCCN1CCCc2ccccc21 (centres undefined),4.6,-0.3%,x,-3.4,-1.5,
CCOC(=O)C(=O)/C(C#N)=C/Nc1ccc(F)cc1,-1.9,-9.5%,-37.9,1.6,14.7,
CC(C)/C=C/CN1CCCC(N2CCN(c3cccc(Cl)c3)CC2)C1 (centres undefined),x,x,x,3.3,9.7,
COc1ccc(-c2csc(NC(=O)CSCC(=O)Nc3cc(C)on3)n2)c(OC)c1,x,x,x,1.1,4.3,
CC(C)c1ccc(/C=C2\SC(N3CCOCC3)=NC2=O)cc1,x,4.8%,x,-1.1,3.0,
O=C(Nc1nc(-c2ccccn2)cs1)c1ccc([N+](=O)[O-])o1,x,u,x,-16.9,93.4,
COCCN1C(=O)N[C@@H](c2cccc(C(F)(F)F)c2)[C@@H](C(=O)OC)[C@H]1C,x,-11.4%,x,0.1,-5.7,
COc1ccc(NC(=O)CC(C)n2ccnc2)cc1 (centres undefined),x,x,x,-0.2,-2.8,
Cc1c(OCC(=O)NCc2ccncc2)ccc2c3c(c(=O)oc12)CCCC3,x,x,x,-1.5,-1.2,
O=C(Cn1nnc(-c2ccccc2-n2cnnn2)n1)c1ccccc1,3.5,-1.2%,18.1,1.3,-0.8,
COc1ccc(-n2c(SC(C)C(=O)Nc3ncc(Cl)cc3Cl)nc3ccccc32)cc1 (centres undefined),24.3,6.5%,20.5,8.5,-2.2,
COc1ccc(/C=C/C(=O)NC(=S)Nc2ccc(S(N)(=O)=O)cc2)cc1OC,x,x,x,-0.4,-7.1,
CNC(=O)Oc1ccc(-c2cn3cc(Cl)ccc3n2)cc1,-26.1,17.2%,-13.7,2.1,4.0,
CCOC(=O)CN(C(=O)CNC(=O)c1cccs1)C(C(=O)NC1CCCCC1)c1cccs1 (centres undefined),-1.5,2.7%,-6.3,0.3,1.5,
COc1ccccc1CN1CCN(Cc2ccco2)CC1,x,x,x,-2.0,1.6,
O=C(OCC(=O)N1CCCC1)c1cc(Br)ccc1Cl,4.9,7.4%,x,0.1,97.8,
CCOC(=O)c1[nH]c(C)c(C(=O)N2CCc3c([nH]c4ccccc34)C2c2ccccn2)c1C (centres undefined),-22.1,70.1%,x,4.9,72.1,
COC(=O)c1c(C)nn(-c2ccc(OC(F)(F)F)cc2)c1-c1snnc1C,x,-4.5%,x,2.0,0.3,
O=C(Nc1ccc(F)cc1)c1ccccc1CC[N+](=O)[O-],-8.9,3.0%,-8.7,2.0,-3.9,
O=C(CSCc1cccc(F)c1)N1CCN(c2ccccc2)CC1,5.8,-6.5%,-30.4,-5.3,9.7,
CCCCNC(=O)c1onc(CSc2ccc(Cl)cc2)c1C(=O)O,8.0,-1.9%,-42.0,0.3,21.3,
O=C(N/N=C/C(Br)=C\c1ccccc1)c1ccc2nc[nH]c2c1,-0.7,u,-8.3,10.0,x,
Cc1cccc(C)c1NC(=O)CN(C)C(=O)COc1cccc2c1OC(C)(C)C2,x,x,x,-1.6,-5.9,
O=C1NC2(CCCCCC2)C(=O)N1Cc1cccc([N+](=O)[O-])c1,x,x,x,-0.3,-8.5,
O=C(Nc1ccc(F)cc1)NC1CCN(Cc2nnnn2Cc2ccco2)CC1,2.1,-4.5%,-98.4,3.4,-3.6,
CCc1ccc(C(CNC(=O)c2ccc3c(=O)n(-c4ccccc4F)c(=S)[nH]c3c2)N(C)C)cc1 (centres undefined),-29.0,3.0%,x,1.3,39.3,
O=C(O)c1ccc(NS(=O)(=O)c2cccc(C(=O)Nc3cccc(C(=O)O)c3)c2)cc1,x,x,x,0.9,-1.4,
NC(=O)COC(=O)c1ccccc1SCC(=O)NC1CCCCCCC1,x,x,x,-3.0,-12.8,
O=C1N2CN(C(c3ccccc3)c3ccccc3)CN=C2SC1(CO)CO,3.1,-8.0%,-65.3,8.1,-4.8,Arbovirus inh repeat=-0.9
Cc1cccc(NC(=S)NC(=O)c2cc(-c3ccccc3)nc3ccccc23)c1,7.2,2.8%,-24.3,8.6,15.3,
COc1ccc(CCN(Cc2cccs2)S(=O)(=O)c2ccc(-n3cnnn3)cc2)cc1OC,4.7,x,-32.5,x,-5.9,
COc1cccc(NC(=O)CCNC(=O)C2CCN(S(=O)(=O)c3ccc(F)cc3)CC2)c1,x,x,x,-1.7,-0.3,
Cc1cc(Nc2ccccc2)nc(N)n1,8.5,7.8%,-12.9,-0.6,-8.8,
CCN(CC)CCCNC(=O)c1ccc2c(=O)n(Cc3ccc4c(c3)OCO4)c(=S)[nH]c2c1,-23.6,-2.6%,x,x,-10.5,
O=c1cc(CN2CCc3ccccc32)nc2sccn12,9.6,-11.9%,4.8,-1.0,-7.7,
O=C(CS(=O)(=O)c1ccc2ccccc2c1)Nc1ccccc1Cl,8.4,70.0%,-20.6,-0.5,u,
O=C(Cn1nnc2ccccc21)OCC(=O)c1ccc(Cl)cc1,x,-7.5%,x,-0.2,-2.0,
CCOc1cc(/C=N/N=C2/NC(=O)C(CC(=O)O)S2)ccc1OCc1ccccc1Cl (centres undefined),12.7,3.4%,x,1.7,1.8,
Cc1ccc(S(=O)(=O)/N=C2/NC(=O)/C(=C\c3ccco3)S2)cc1,-2.9,x,-19.9,x,-26.0,
CCCC(=O)Nc1ccccc1NC(=O)C1CCCCC1,-0.4,-7.2%,-41.9,-3.1,10.6,

# Other structures follow.
SMILES,Arbovirus inh,Mtb growth,YopH inh,RecA intein inh,Mtb bLac sens,others
CCOC(=O)CCc1c(C)c(C#N)c2nc3ccccc3n2c1-n1ccnc1,-5.5,0.4%,-11.7,-37.8,-17.8,
CC(=O)Nc1cccc(NC(=O)c2cccc(OCc3ccccc3)c2)c1,x,x,x,-2.5,8.2,
COc1cc(/C=N/n2cnnc2)ccc1OC(=O)N(C)C,3.1,-1.4%,-4.6,-0.4,4.0,
Cc1ccc(NC(=O)N2CCCCCC2)cc1C,x,x,x,-0.4,2.4,
Cc1ccc2c(c1)c1nnc(SCC(=O)N3CCCc4ccccc43)nc1n2CC(=O)O,-0.2,-1.4%,x,x,-13.1,
O=S(=O)(CCn1cccc1)CCn1cccc1,6.9,8.4%,1.7,-0.2,-4.3,
Cc1ccccc1NC(=O)c1nn(-c2ccc(F)c(F)c2)ccc1=O,-6.5,8.3%,x,1.1,-2.3,
O=C1NC[C@H](Cc2ccccc2)N(CC2CCCCC2)C1=O,x,-3.0%,x,-0.9,-1.2,
O=C(CCN1CCOCC1)NCC(=O)Nc1ccc(Br)cc1C(=O)c1ccccc1,2.0,-9.2%,-53.8,0.7,-2.7,
Cn1c(CN2CCN(CC#N)CC2)c(C#N)c2ccccc21,0.2,-2.9%,-56.7,-0.1,10.8,
O=C(Nc1ccon1)Nc1cc(Cl)ccc1Cl,x,x,x,-1.0,4.8,
N#C/C(=C\Nc1ccc(Cl)cn1)S(=O)(=O)c1ccccn1,x,3.6%,x,2.0,-4.1,
CCCCNC(=O)[C@@H]1CSC2c3ccc(OC)c(OC)c3C(=O)N21 (some centres undefined),x,x,x,-2.0,-5.2,
CCN(CC)S(=O)(=O)c1ccc(OC)c(NC(=S)Nc2ccc(C)c(C)c2)c1,0.5,6.2%,4.4,3.5,1.8,
CCn1c(SCC(=O)c2ccc(NC(C)=O)c(OC)c2)nnc1-c1ccc(NS(C)(=O)=O)cc1,-1.4,-6.8%,-19.3,-0.2,6.9,
CCN1C(=O)CS/C1=N\c1nccs1,11.7,-2.7%,-43.9,-1.3,-8.4,Arbovirus inh repeat=3.0
CCOC(=O)CNC(=S)N(CCCN1CCCC1)Cc1cccs1,7.7,-3.4%,x,-1.6,-6.7,
O=C(O)CCS(=O)(=O)c1nc(-c2cccs2)cc(C(F)(F)F)n1,2.5,-2.8%,-2.0,24.7,x,
CS(=O)(=O)c1ccc(C(=O)Nc2ccc(S(=O)(=O)N3CCCCC3)cc2)cc1,x,x,x,0.1,-10.5,
O=C(Cn1ncc2c3ccccc3n(Cc3ccccc3)c2c1=O)NCCCN1CCCC1,x,x,x,-2.8,0.5,

# Sorted by SMILES length (rising): some entries from above
SMILES,Arbovirus inh,Mtb growth,YopH inh,RecA intein inh,Mtb bLac sens,others
Cc1ccc(NC(=O)N2CCCCCC2)cc1C,x,x,x,-0.4,2.4,
O=C1NC[C@H](Cc2ccccc2)N(CC2CCCCC2)C1=O,x,-3.0%,x,-0.9,-1.2,
CCCCNC(=O)[C@@H]1CSC2c3ccc(OC)c(OC)c3C(=O)N21 (some centres undefined),x,x,x,-2.0,-5.2,
O=C(Cn1ncc2c3ccccc3n(Cc3ccccc3)c2c1=O)NCCCN1CCCC1,x,x,x,-2.8,0.5,
CS(=O)(=O)c1ccc(C(=O)Nc2ccc(S(=O)(=O)N3CCCCC3)cc2)cc1,x,x,x,0.1,-10.5,

# (next part)
SMILES,Arbovirus inh,Mtb growth,YopH inh,RecA intein inh,Mtb bLac sens,others
COc1cc(-c2ccc3oc(-c4ccsc4)c(C#CC4(O)CCCCC4)c3c2)cc(OC)c1OC,x,3.77µM*,x,1.1,40.2,
Cc1ccc(Cc2nc(-c3cccnc3)no2)cc1,-4.0,9.4%,-48.1,0.2,3.4,
O=C(Nc1nc2ccccc2c(=O)s1)c1ccco1,x,2.7%,x,27.1,-3.5,
N#CCSc1nnc(CNc2cccc(Cl)c2)o1,0.4,-2.0%,-16.1,-1.9,1.8,
O=C(NCc1ccccc1)c1ccc(CN2CCC(Cc3ccccc3)CC2)cc1,x,x,x,2.3,1.2,
C=CCN=C(SCC(=O)c1ccc(Cl)cc1)c1c(O)n(C)c(=O)n(C)c1=O,x,1.3%,x,4.3,-7.8,
COc1ccc(-n2ccc(=O)c(C(=O)Nc3ccc(S(=O)(=O)Nc4nccs4)cc3)n2)cc1,x,x,x,1.4,0.0,
CCC(=O)O/N=C(\N)c1ccc(Oc2cc(C)c(Cl)c(C)c2)c([N+](=O)[O-])c1,x,18.8%,x,5.5,5.5,
CCCNS(=O)(=O)c1ccc(CCC(=O)N2CCCCC2)cc1,9.6,-6.1%,9.6,2.2,2.7,
